Sfp PPTase inh = qHTS Assay for Inhibitors of Bacillus subtilis Sfp phosphopantetheinyl transferase (PPTase). Potency, µM, without a hit: max response, negative = inhibition, usual class: inhibitors. AID 1490, 2009. 3.5% of 310,000 active. 4'-phosphopantetheinyl transferase ffp (Bacillus subtilis), Q9F4F7. Biochemical Sfp PPTase activity, qHTS; active means well fitted inhibition curve with a large enough effect; inconclusive means small, poorly fitted or top-dose-only effect, or another doubt; inactive means no such curve, though single readings can be large or run the other way;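 further: the enzyme is Sfp with the accession as filed and its product quenches rhodamine fluorescence; potency means the concentration at half of the fitted maximal effect; 0% = enzyme reaction without inhibitor and -100% = no enzyme wells; top concentration of the series not given in the record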
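Fluorescence-quenching assay with 15 nM Sfp, 5 uM rhodamine-CoA and 12.5 uM BHQ-2-labelled ybbR peptide in pH 7.6 Hepes/MgCl2 buffer. Enzyme was pre-incubated with compound for 15 min at room temperature. Rate was taken from the 30-min fluorescence change (525/598 nm).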
TRPML1 blocker = qHTS for Inhibitors of the Human Mucolipin Transient Receptor Potential 1 (TRPML1). activity change, negative = inhibition, % (test concentration not listed). TRPML1-inducible cells, Ca2+ dye fluorescence, FDSS; stronger effect = lower value; inhibition of EC80 agonist-evoked calcium signal. 0.02% of 390,000 active. AID 624415, 2012. Mucolipin-1 (Homo sapiens), Q9GZU1; in the data active means activity change below about -50%; inconclusive means about -30% to -50%; inactive means above about -30%;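 further: stimulus is agonist 54-4 at its EC80 concentration; on the % scale 0 is the no-effect control and ±100 the full control effect; compound concentration not given in the record; the text of the record puts the active cut at -80%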
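Tet-induced TRPML1-DL cells loaded with Ca8 no-wash calcium dye were read kinetically on FDSS. Compound addition was followed by EC80 agonist 54-4 (4 uM final); inhibition was read over 110 s.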
ClpP mod = qHTS Assay for Activators of ClpP; ATP-dependent Clp protease proteolytic subunit (Bacillus subtilis (strain 168)), P80244; purified B. subtilis ClpP, FRET peptide cleavage, 20 min; Potency, µM (top dose mostly 57.5 µM), inactives show top-dose activity change, negative = active; 1.9% of 340,000 active; AID 651965, 2013; active = well fitted falling curve with a large enough effect; inconclusive = small, poorly fitted or top-dose-only effect; inactive = no such curve, though single readings can be large or run the other way; further: potency means the concentration at half of the fitted maximal effect; the source files actives as falling curves though it sought activators and does not explain the sign; nearly all actives have a fitted effect of over 65% in size; many hits overshoot -100%
Target sequence (P80244 whole entry, looked up): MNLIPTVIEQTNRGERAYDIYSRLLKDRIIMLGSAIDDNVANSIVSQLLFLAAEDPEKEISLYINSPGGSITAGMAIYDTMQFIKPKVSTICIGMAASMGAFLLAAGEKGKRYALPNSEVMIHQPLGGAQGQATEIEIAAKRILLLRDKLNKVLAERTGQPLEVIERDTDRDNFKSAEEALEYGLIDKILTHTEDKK
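ClpP 10 microg/mL final, pH 8 Tris/KCl buffer with BSA, glycerol, Tween-20; compound pinned in; FRET-FV substrate; RT 20 min; Ex320/Em430; ΔFRET vs ADEP 5.8 microM, DMSO, no enzyme.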
TRPML1 agonist = qHTS for Agonists of the Human Mucolipin Transient Receptor Potential 1 (TRPML1). Mucolipin-1 (Homo sapiens), Q9GZU1. TRPML1-expressing cells, Ca2+ dye fluorescence, FDSS; host cell line not named in the record; reference of the full effect not given here. activation, % (concentration not given with the values). 0.12% of 410,000 active. AID 624414, 2012; in the data active = activation above about 50%; inconclusive = about 30% to 50%; inactive = below about 30%; further: 0% is about no effect; the text of the record puts the active cut at 80%
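Cells: TRPML1-DL, 1X Tet inducer, ~16 h at 37 degrees C/5% CO2. Dye: ABD Ca8 no-wash + quencher, 45-90 min RT. Read: 10 s baseline, compound add, 110 s agonist phase; 54-4 EC80 (4uM final), 110 s antagonist phase.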
Menin MLL FP FL = qHTS Assay for Inhibitors Targeting the Menin-MLL Interaction in MLL Related Leukemias: Competition With Fluorescein Labeled MLL-derived Peptide. Fluorescence polarization, fluorescein-MLL peptide displacement from menin. FP activity change, % at 61.4 µM. 290,000 tested, under 10 active. AID 1766, 2009; inconclusive = falling polarisation curve, or a change in total fluorescence; inactive = total fluorescence flat and polarisation flat or rising; no compound was filed as active; the % refers to the polarisation; negative = inhibition;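 further: % of control where 0% means no effect; inhibitors lower the polarisation; unlabelled MLL peptide was the positive control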
PINK1 expr mod = A Quantitative High throughput Screen to Identify Chemical Modulators of PINK1 Expression; PINK1 immunofluorescence, high-content cytometry, 24 h; 0.2% of 410,000 active; Potency, µM (titrated, usually from 76.6 µM), without a hit: at the highest dose activation (PINK1 increase), most hits filed as activators; AID 624263, 2012; active = well fitted activation curve with a large enough effect; inconclusive = small, poorly fitted or top-dose-only effect; inactive = flat fitted curve, though single readings scatter; cell line not stated here;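 further: potency means the concentration at half of the fitted maximal effect; % of control where 0% means no effect; nearly all actives have a fitted effect of over 65% in size; a mitochondrial uncoupler was the plate control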
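PINK1 protein, normally rapidly degraded, was detected by immunofluorescence after 24 hour compound treatment of a stable cell line. Titration data (5 concentrations) came from laser-scanning cytometry, with CCCP-treated wells as controls.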
TRPV1 potentiator = HTS Assay for Compounds that Act as Potentiators of the Vanilloid Receptor 1; Transient receptor potential cation channel subfamily V member 1 (Homo sapiens), Q8NER1; TRPV1-expressing cells, Fluo-8 calcium influx, capsaicin EC20 potentiation; host cell line not named in the record; control for the full effect not named in the record; potentiation, % at 8.33 µM; 0.02% of 320,000 active; AID 540277, 2011; active means potentiation above 80%; inconclusive means 30% to 80%; inactive means below 30%; further: 0% is about no effect
Target sequence (Q8NER1 whole entry, looked up): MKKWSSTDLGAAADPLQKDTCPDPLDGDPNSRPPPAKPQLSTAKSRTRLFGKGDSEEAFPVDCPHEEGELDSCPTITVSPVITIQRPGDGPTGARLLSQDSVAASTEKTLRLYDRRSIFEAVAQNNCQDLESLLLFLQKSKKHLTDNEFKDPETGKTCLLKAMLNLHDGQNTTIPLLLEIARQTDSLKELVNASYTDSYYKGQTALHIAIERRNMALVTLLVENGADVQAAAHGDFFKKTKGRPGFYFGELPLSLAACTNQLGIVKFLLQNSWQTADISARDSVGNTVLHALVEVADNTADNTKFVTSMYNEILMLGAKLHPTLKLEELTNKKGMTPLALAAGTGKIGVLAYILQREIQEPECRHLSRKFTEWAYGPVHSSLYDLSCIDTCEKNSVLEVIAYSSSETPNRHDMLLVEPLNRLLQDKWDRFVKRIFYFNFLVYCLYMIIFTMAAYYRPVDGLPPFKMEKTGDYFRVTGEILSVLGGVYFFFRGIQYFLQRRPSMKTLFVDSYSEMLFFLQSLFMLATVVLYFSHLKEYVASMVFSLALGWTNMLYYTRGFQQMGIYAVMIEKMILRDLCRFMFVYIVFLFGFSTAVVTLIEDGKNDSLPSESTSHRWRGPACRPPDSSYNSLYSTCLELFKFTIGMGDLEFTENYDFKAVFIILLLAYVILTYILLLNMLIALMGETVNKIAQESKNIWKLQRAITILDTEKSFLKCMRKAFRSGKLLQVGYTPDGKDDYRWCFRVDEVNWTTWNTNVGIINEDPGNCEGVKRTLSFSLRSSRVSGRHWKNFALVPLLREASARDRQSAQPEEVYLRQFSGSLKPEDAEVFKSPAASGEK
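Fluo-8 calcium influx in TRPV1-expressing cells, kinetic read (ex 480/em 520 nm). Compound added and read 3 min for agonist activity, followed by capsaicin at EC20 final and 2 min further read for enhancement.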
The depositor's hits bear a star; ? = inconclusive; nt = not tested or not shown; [ ] = remark or other dose.

SMILES	Sfp PPTase inh	TRPML1 blocker	ClpP mod	TRPML1 agonist	Menin MLL FP FL	PINK1 expr mod	TRPV1 potentiator
CC(Sc1ccc(S(=O)(=O)N2CCOCC2)cn1)c1ccccc1Cl (configuration not stated)	nt	-7.2	nt	1.2	nt	0.9%	nt
Cn1c(N)c(C(=O)CSc2nc(C3CC3)n(-c3ccccc3)n2)c(=O)n(C)c1=O	nt	-19.5	1.5%	-0.4	nt	4.9%	6.9
Cc1sc(NC(=O)c2ccco2)c(C(c2cccnc2)N2CCCC2)c1C (configuration not stated)	-26.2%	-9.0	-3.3%	1.9	-0.7	?	-1.8
Cc1cc(Br)ccc1NC(=O)CN1C(=S)NC(C)(C)CC1C (configuration not stated)	?	4.6	-2.8%	0.2	0.9	-1.1%	4.4
O=C(c1cccs1)N1CCCC(c2nc3c(nnn3Cc3ccc(F)cc3)c(=O)[nH]2)C1 (configuration not stated)	17.8%	-8.3	-1.4%	2.3	-0.8	-0.9%	-17.8
C=CCSC(CC)(CC)C(N)=O	-3.6%	13.9	nt	-0.3	0.8	1.0%	7.7
CCOC(=O)c1c(C)oc(=O)c(CC)c1O	nt	-5.3	-3.6%	0.2	nt	-0.5%	nt
O=[N+]([O-])c1cccc(NNS(=O)(=O)c2ccccc2F)c1	?	0.6	nt	0.1	-0.7	4.3%	-0.8
COc1ccc(F)cc1-c1cc(C(=O)NCc2cccc(C(F)(F)F)c2)[nH]n1	nt	nt	-5.8%	-0.7	nt	-0.4%	nt
NC(=O)c1ccccc1NC(=O)CCc1ccccc1	13.3%	14.2	-8.2%	1.2	5.4	12.3%[38.3 µM]	-18.7
CCN(CC)c1cc(NCCO)c([N+](=O)[O-])c2nonc12	-5.0%	-0.9	nt	0.7	0.7	-1.7%	-1.7
COc1ccc(-c2cc(C(=O)N3CCCc4ccccc43)no2)cc1	3.4%	11.8	0.8%	1.1	6.1	2.5%	16.2
COc1ccc(NC(=O)C2(C)Cc3c(-c4cccc(NC(C)=O)c4)ccnc3O2)cc1 (configuration not stated)	nt	11.7	-4.6%	1.4	nt	5.6%	nt
CC1CCCCC1=NNC(=O)c1ccccc1 (configuration not stated)	nt	9.5	2.2%	0.0	nt	0.5%	nt
Cc1cc(C(=O)COC(=O)COc2ccccc2C#N)c(C)n1CC1CCCO1 (configuration not stated)	nt	0.4	1.8%	0.4	nt	1.6%	-5.0
C=CCn1c(SCC(=O)Nc2cc(C)on2)nc2ccccc21	nt	-0.1	-2.4%	-0.1	nt	0.9%	nt
CC(=O)c1cnc(Nc2cccc(C)c2)s1	5.1%	-21.8	nt	-0.1	-1.1	-0.8%	-24.0
COCCCN(C(=O)Cc1csc(-c2cccc(Cl)c2)n1)c1c(N)n(Cc2ccccc2)c(=O)[nH]c1=O	nt	-1.6	0.4%	1.1	nt	5.5%	-3.7
COc1ccc(S(=O)(=O)n2cccc2)cc1	nt	?	-0.9%	3.9	nt	3.3%	nt
CC(=O)c1ccc(OCCCC(=O)N(CCC2=CCCCC2)c2c(N)n(Cc3ccccc3)c(=O)[nH]c2=O)cc1	nt	-13.1	-0.9%	-0.9	nt	-0.2%	3.6
CCC1C/C(=C\c2cc(OC)c(OC)cc2OC)C(=O)/C(=C/c2cc(OC)c(OC)cc2OC)C1 (configuration not stated)	56.2µM*	2.8	-1.4%	5.8	?	-3.2%	10.7
COc1ccc([C@H]2C[C@H](n3cc(COC(=O)c4ccccc4)nn3)[C@@H](O)CN2Cc2cccs2)cc1	nt	14.6	0.0%	-0.1	nt	0.0%	nt
Cc1ccc(N(CC(N)=O)C2SC(=O)N(C)C2=O)cc1 (configuration not stated)	1.0%	11.7	-2.3%	0.2	0.6	1.2%	-10.1
COCCOc1nc2c(c(=O)n(C)c(=O)n2C)n1Cc1cccc(OC)c1	10.1%	23.3	2.9%	-1.0	2.4	1.7%	-8.1
Cn1cccc1C(C(=O)NC1CCCCC1)N(C(=O)Cc1cccs1)C1CC1 (configuration not stated)	-13.4%	?	1.2%	-0.6	3.1	-0.7%	-7.2
O=C(/C=C/c1ccco1)Nc1ccc(S(=O)(=O)N2CCOCC2)cc1	-18.9%	16.1	nt	0.4	1.2	-3.2%	-33.7
COc1ccccc1NC(=S)Nc1cccc(F)c1	-3.2%	-4.5	-1.6%	5.2	2.1	-1.1%	?
CCOc1ccc(OCC(O)CN2CCN(S(=O)(=O)c3cccc(C(F)(F)F)c3)CC2)cc1 (configuration not stated)	-22.5%	-1.0	nt	-0.6	-0.8	4.6%	1.6
CCN1CCN(C(=O)NC2CC(=O)N(c3ccc(OC)cc3)C2)CC1 (configuration not stated)	12.6%	-14.6	nt	-0.4	6.7	2.0%	5.8
CCN(CC)S(=O)(=O)c1ccc(N2CCOCC2)c(NC(=O)Cc2cccc3ccccc23)c1	-2.6%	4.7	-3.8%	0.9	4.5	15.5%	-3.0
Cc1ccc(C(=O)c2cc(C)sc2NC(=O)CN2CCN(C(=O)c3ccco3)CC2)cc1	?	-12.5	0.3%	0.7	0.7	5.7%	25.5
Cc1cc(=O)oc2ccc(OC(=O)CC(C)C)cc12	10.2%	-10.8	nt	-0.5	1.6	1.9%	?
C/C(CC(=O)Nc1cccc(Cl)c1)=N\NC(=O)Cc1ccc(Cl)cc1	18.2%	-10.9	0.2%	1.3	3.3	-2.7%	5.6
COc1ccc(CCC(=O)NCc2nc3cccnc3n2Cc2ccccc2)cc1	nt	-8.1	0.5%	-0.2	nt	0.5%	nt
CCN1CC=C2C(C#N)=C(N)C(C#N)(C#N)C(CCc3ccccc3)C2C1 (configuration not stated)	-0.1%	-5.1	28.2µM*	10.0	?	10µM*	4.7
COc1ccc(C(=O)N2CCc3ccccc32)cc1	6.9%	1.8	0.0%	-0.4	-0.8	1.3%	-8.6
COc1ccc(C(C)C)cc1-c1cc(C(=O)NCc2cc(C(F)(F)F)cc(C(F)(F)F)c2)[nH]n1	nt	nt	5.0%	0.8	nt	6.0%	nt
CCOC(=O)C1=C(C)NC(C)=C(C(=O)OCC)C1C(=O)OCC(=O)N(C)C	15.0%	-2.9	nt	-0.9	-0.1	0.1%	5.2
Cc1ccc(C(C)C)cc1OCC(=O)NCCCn1ccnc1	nt	?	nt	-0.4	nt	-1.3%	nt
CCOc1cc(S(=O)(=O)NCc2ccncc2)c(C)cc1C	12.1%	21.0	nt	1.8	-4.1	-0.2%	5.1
O=C(O)c1ccccc1NN=C1CCCCC1	-12.0%	5.1	-2.1%	0.5	5.7	-2.1%	9.5
CN(CC(=O)N1CCCCCC1)S(=O)(=O)c1ccccc1	11.3%	25.0	nt	-0.2	6.0	2.1%	5.9
N#Cc1ccccc1COC(=O)c1cc(S(=O)(=O)N2CCOCC2)ccc1F	nt	-3.9	-0.7%	-0.5	nt	3.5%	nt
CC(CCc1ccccc1)NC(=O)CSc1nnnn1C (configuration not stated)	16.9%	-10.4	-2.1%	0.5	2.8	0.2%[38.3 µM]	9.1
O=C(c1cccc(Cl)c1)N1CCC(=O)N(C(COCc2ccccc2)Cc2ccccc2)CC1 (configuration not stated)	-2.9%	22.5	-1.1%	0.6	1.3	-1.3%	-3.5
CCOc1ccccc1NC(=O)C1=C(C)NC(=S)NC1c1cccs1 (configuration not stated)	-1.2%	47.5	1.7%	-0.3	0.6	2.1%	17.1
COc1cc(OC)cc(-c2oc3cccnc3c2C#CCCO)c1	-19.7%	-9.1	4.4%	-0.1	6.4	1.0%	14.0
C=CCn1c(CCc2ccccc2)nnc1SCC(=O)OC	18.5%	-3.8	nt	0.5	2.8	-0.7%	-5.1
CCCCN(C)C(=O)C1CCN(C/C(C)=C/c2ccccc2)CC1	-16.0%	-8.9	-0.3%	-0.5	-4.0	-1.6%	-4.7
CCOC(=O)c1c(NC(=O)CCCOc2ccc(C(C)(C)C)cc2)sc2c1CCC2	nt	5.4	-3.4%	1.1	nt	1.8%	nt
Cc1ccc(NC(=S)NCCN(C2CCCCC2)C2CCCC2)cc1	16.9%	27.5	-1.6%	0.3	1.0	5.0%	8.1
COc1ccc(-n2c3c(cc(C(=O)NCC(=O)c4ccccc4)c2=O)C(=O)CC(C)(C)C3)cc1	12.6%	1.5	-21.2%	0.3	nt	4.1%	-0.4
Cc1c(Cl)c(C(=O)N2CCCC2)nn1C	4.7%	-2.0	?	0.1	4.9	-1.3%	8.5
Cc1ccc(OCC(O)Cn2c(N3CCCCC3)nc3c2c(=O)[nH]c(=O)n3C)cc1 (configuration not stated)	6.6%	6.6	1.0%	0.4	-2.7	0.8%	18.1
O=C(COc1ccc(NC(=O)c2ccccc2[N+](=O)[O-])cc1)c1ccc(F)cc1	9.1%	7.8	nt	-0.9	-0.3	3.3%	-6.0
CC1(C)Cc2c(sc(NC(=O)c3ccc(S(=O)(=O)N4CCCC4)cc3)c2C#N)C(C)(C)N1	5.4%	1.4	-0.3%	0.8	nt	0.8%	-4.9
CN1CCN(S(=O)(=O)c2ccc3ccccc3c2)CC1	0.2%	2.9	-0.1%	0.3	1.7	3.6%	?
COCCn1c(=O)c(C)nc2cnc(N3CCNCC3)nc21	22.2%	nt	nt	nt	-9.5	0.2%	nt
CC(=O)n1cc(-c2ccncc2)c2ccccc21	12.7%	17.6	0.2%	-0.4	3.7	-1.1%	-47.4
COc1cccc(OCc2cc(C(=O)N3CCC(c4ccncc4)CC3)no2)c1	5.3%	5.9	0.8%	2.5	-0.9	-0.1%	-17.6

Rows were taken by chance, and some 4.4% of all compounds hit somewhere here.
